Ecoli growth = E. coli growth inhibition, primary screen, OD600; Escherichia coli growth, 23 h; stronger effect = lower value; OD600 absorbance (test concentration not listed); 330,000 tested, 0.21% active; AID 1053175, 2014;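 active = OD600 absorbance below the run mean of sample wells minus 3.6 SD, in any replicate, cut at about 0.56 in these data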;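 note: stock transfer was 300 nL into about 60 µL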
FGF22 binding = binders of human FGF22 protein, primary screen, FGF22 synaptogenesis inhibitor project, biophysical, thermal shift, single point | 340,000 tested, 1.5% active | Fibroblast growth factor 22 (Homo sapiens), Q9HCT0 | recombinant FGF22 thermal shift, SYPRO orange fluorescence; percent of sucrose octasulfate shift, DMSO zero | calls only at 9.99 µM;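 active = melting point raised past a set limit in the mean and every replicate; three in four hits are not shown here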
Target sequence (Q9HCT0 whole entry, looked up): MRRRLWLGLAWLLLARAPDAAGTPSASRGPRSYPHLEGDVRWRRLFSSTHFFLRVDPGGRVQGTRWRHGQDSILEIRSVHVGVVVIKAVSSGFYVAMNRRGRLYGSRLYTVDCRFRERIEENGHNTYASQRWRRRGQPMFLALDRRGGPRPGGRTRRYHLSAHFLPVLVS
UCH37 inh = inhibitors of human UCH37 deubiquitinase, primary screen, biochemical, Ub-AMC cleavage, fluorescence | Ubiquitin carboxyl-terminal hydrolase isozyme L5 (Homo sapiens), Q9Y5K5 | purified proteasome/UCH37 | inhibition, % (no concentration beside the values) | 330,000 tested, 0.33% active;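 active = mean of two replicates above 20%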;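 note: 0% = compound-free wells with enzyme and 100% = wells lacking proteasome; stock transfer was 100 nL into about 20 µL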
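Material: Human UCH37 enzyme supplied as purified proteasome complex | Schedule: 30 min compound-proteasome preincubation then 25 min substrate reaction, room temperature | Detection: AMC fluorescence from Ub-AMC cleavage, excitation 355 nm, emission 460 nm | Benchmarks: Wells without proteasome as full block, compound-free enzyme plus substrate as uninhibited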
ALR H2O2 inh = inhibitors of human ALR sulfhydryl oxidase, primary screen, biochemical, H2O2 detection, HRP-luminol luminescence, single point. purified ALR, DTT oxidation. inhibition, % (no concentration beside the values). 290,000 tested, 3.8% active. AID 485317, 2010;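 active = mean and each replicate at 75% or more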;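 note: stock transfer was 7.5 nL into about 7.5 µL; 0% = neutral wells and 100% = wells with inactivated enzyme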
LANA-H2B inh = blockers of LANA interaction with H2A/H2B – biochemical, FP readout, HTS, primary screen; inhibition, % (concentration not given with the values); cell-free LANA-H2A/H2B peptide, fluorescence polarization; 320,000 tested, 0.6% active; AID 2629, 2010; in the data active = inhibition mostly above about 10%, no sharp cut-off; inactive = mostly below about 6.7%;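 note: stock transfer was 7.5 nL into about 10 µL; 0% = median of vehicle wells and 100% = median of positive control wells; one replicate is shown; the record names a cut of 25% in any replicate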
B2AR ag = beta2AR agonists driving receptor internalization, primary screen, cell-based, FAP fluorogen, flow cytometry; Beta-2 adrenergic receptor (Homo sapiens), P07550; 340,000 tested, 0.43% active; response, % (test concentration not listed); Am2.2-beta2AR cells; reference of the scale not given here;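 active = response above a set limit, near 3 SD of response in nonfluorescent compounds, cut at about 42% in these data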;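 note: stock transfer was 100 nL into about 11 µL; a reference agonist was the positive control; negative values mostly stem from fluorescent compounds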
Target sequence (P07550 whole entry, looked up): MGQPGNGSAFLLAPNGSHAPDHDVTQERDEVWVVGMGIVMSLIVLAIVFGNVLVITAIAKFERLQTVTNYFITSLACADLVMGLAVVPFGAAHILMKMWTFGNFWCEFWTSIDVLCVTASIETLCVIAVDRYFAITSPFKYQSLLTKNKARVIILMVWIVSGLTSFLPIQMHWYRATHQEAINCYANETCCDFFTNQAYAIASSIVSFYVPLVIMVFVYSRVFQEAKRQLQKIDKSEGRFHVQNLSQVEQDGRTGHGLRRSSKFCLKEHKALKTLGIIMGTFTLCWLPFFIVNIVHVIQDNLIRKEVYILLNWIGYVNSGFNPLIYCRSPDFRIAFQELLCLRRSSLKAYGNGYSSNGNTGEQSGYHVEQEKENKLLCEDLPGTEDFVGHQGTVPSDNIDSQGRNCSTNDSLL
HNF4A DNA FP = change in binding of human HNF4A to DNA, primary screen, biochemical, fluorescence polarization, FITC-DNA | Hepatocyte nuclear factor 4-alpha (Homo sapiens), P41235 | 1 h | activity change, % at 10 µM | 360,000 tested, 0.3% active | AID 1224865, 2016; in the data active = activity change above about 30%, passing the limit was not always enough;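 note: controls were the assay level and a saturating level of protein; the project sought stronger binding though the title names inhibitors; some compounds called inactive have numbers as strong as hits; positive values seem to mean higher polarization but the record does not say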
Target sequence (P41235 whole entry, looked up): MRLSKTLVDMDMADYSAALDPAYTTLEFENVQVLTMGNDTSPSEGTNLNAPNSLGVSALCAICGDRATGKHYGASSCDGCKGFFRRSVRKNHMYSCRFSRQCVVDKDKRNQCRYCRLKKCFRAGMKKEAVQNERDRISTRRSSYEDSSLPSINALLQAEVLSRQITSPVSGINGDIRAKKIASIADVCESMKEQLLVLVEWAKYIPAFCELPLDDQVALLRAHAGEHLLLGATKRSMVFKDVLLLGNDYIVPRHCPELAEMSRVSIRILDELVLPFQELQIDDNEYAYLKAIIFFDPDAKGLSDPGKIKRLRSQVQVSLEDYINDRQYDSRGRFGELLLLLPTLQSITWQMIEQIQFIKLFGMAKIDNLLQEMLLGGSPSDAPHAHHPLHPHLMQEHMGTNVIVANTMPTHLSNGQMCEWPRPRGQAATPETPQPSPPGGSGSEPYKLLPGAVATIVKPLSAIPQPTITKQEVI
An asterisk follows results filed as active; i = inactive; nt = no result given; + = active, no number.

SMILES	Ecoli growth	FGF22 binding	UCH37 inh	ALR H2O2 inh	LANA-H2B inh	B2AR ag	HNF4A DNA FP
Cc1ccc(C(=O)NCC(=O)OC(C)C(=O)Nc2ccc(N(C)C)cc2)cc1C (stereo unspecified)	0.65	i	1.6	99*	-10	7	-3.7
CC(=O)c1cccc(-n2c(CCC(=O)O)ccc2-c2ccccc2)c1	0.7	i	1.0	72	0.2	2	-1.7
O=C(Nc1ccn(Cc2ccccc2)n1)c1cccc(Cn2cc([N+](=O)[O-])cn2)c1	0.66	nt	-0.7	-14	0.2	-13	-4.9
O=C(c1ccc2c(c1)OCO2)N(c1ccccc1)C1C=CS(=O)(=O)C1 (stereo unspecified)	0.78	nt	2.8	7	-4.3	-3	-1.6
CNC(=O)c1ccc(NC(=O)C2CCN(c3ncnc4sc(C)c(C)c34)CC2)cc1	0.73	i	0.3	0	-9.1	3	-2.1
O=c1c2cnn(-c3ccccc3)c2ncn1Cc1ccco1	0.76	nt	1.8	0	6.7	3	-1.9
O=S(=O)(NC1CCCCC1NCc1ccco1)c1ccc(Cl)cc1 (stereo unspecified)	0.63	nt	-0.3	1	2.2	3	1.4
Cc1cc(C)c(S(=O)(=O)N2CCCC(C(=O)NCCC3=CCCCC3)C2)c(C)c1 (stereo unspecified)	0.68	i	3.5	-11	5.1	4	-3.5
CN1CCN(S(=O)(=O)c2cccc(C(=O)N3CCc4ccccc43)c2)CC1	0.7	i	2.0	8	4.8	-1	1.3
NCCCCCc1nnc(SCC(=O)c2ccc(Cl)cc2)o1	0.68	nt	1.2	nt	7.0	-7	-0.1
CN(C)CCN1C(=O)C(O)=C(C(=O)c2cc3ccccc3o2)C1c1ccc(N(C)C)cc1 (stereo unspecified)	0.68	i	12	-77	3.2	-7	0.0
S=c1[nH]nc(CCc2nc3ccccc3[nH]2)n1-c1cccc(Cl)c1	0.66	i	1.2	-10	4.5	-8	-3.4
Cc1ccc(C2(C)NC(=O)N(CC(=O)Nc3ccc4[nH]c(=O)[nH]c4c3)C2=O)cc1 (stereo unspecified)	0.7	i	2.2	-3	-4.0	-3	-4.0
CC(=O)C1=C(O)C(=O)N(c2ccc(C(=O)O)cc2)C1c1ccc([N+](=O)[O-])cc1 (stereo unspecified)	0.69	i	7.7	43	13*	-8	-3.2
COc1ccc(-n2c(-c3ccco3)nc3c(cnn3-c3ccccc3C)c2=O)cc1	0.73	i	4.3	-5	-1.4	-6	3.9
Cc1ccc(C(C(=O)NC2CCCCC2)N(C(=O)c2csnn2)C2CC2)o1 (stereo unspecified)	0.65	nt	-0.2	nt	-0.7	-1	0.1
Cc1[nH]n(-c2ccc(C(=O)O)cc2)c(=O)c1CCO	0.65	nt	5.4	nt	nt	-4	-2.8
Cc1cc(CN(C)C(=O)c2ccc3nc(Cc4ccccc4F)oc3c2)on1	0.64	nt	0.8	3	6.1	-7	-0.2
O=C(COc1ccc(-c2nnco2)cc1)Nc1ccc(F)c(Cl)c1	0.66	i	-0.3	-3	-1.7	-4	0.3
C=CCn1c(C(CCCC)CC(O)COCCC)n[nH]c1=S (stereo unspecified)	0.69	i	0.2	92*	3.4	-1	2.0
O=C(N/N=C/c1ccc(Br)o1)c1ccc2c(c1)OCCO2	nt	nt	nt	-6	2.3	-12	-1.1
Cc1oc(-c2ccccc2Cl)nc1CSCC(=O)NC1CCCC1	0.72	nt	2.9	nt	3.9	-2	-1.5
Cc1cc(F)ccc1S(=O)(=O)N1CCCCC1CCNC(=O)C(=O)NCc1ccccn1 (stereo unspecified)	0.68	i	0.8	0	1.9	9	2.9
Cn1cc(C(=O)NCc2cccs2)c(=O)c2cc(S(=O)(=O)N3CCCC3)ccc21	0.67	i	2.9	-11	2.0	2	0.3
CC(OC(=O)c1ccco1)C(=O)NCc1cccs1 (stereo unspecified)	0.7	nt	4.1	-2	-3.1	-5	4.1

The list goes on; it opens with the two that closed the last part.
SMILES	Ecoli growth	FGF22 binding	UCH37 inh	ALR H2O2 inh	LANA-H2B inh	B2AR ag	HNF4A DNA FP
Cn1cc(C(=O)NCc2cccs2)c(=O)c2cc(S(=O)(=O)N3CCCC3)ccc21	0.67	i	2.9	-11	2.0	2	0.3
CC(OC(=O)c1ccco1)C(=O)NCc1cccs1 (stereo unspecified)	0.7	nt	4.1	-2	-3.1	-5	4.1
COc1cc(CNCCc2ccccc2)cc(Cl)c1OCc1ccccc1	0.57	i	3.5	nt	-2.3	28	2.7
CC(C)c1ccc(CCNC(=O)c2ccc([N+](=O)[O-])cc2)cc1	0.68	i	0.0	-1	3.4	1	1.0
CC(=O)Nc1ccc(S(=O)(=O)N2CCC(C(=O)NCCc3c[nH]c4ccccc34)CC2)cc1	0.67	i	3.1	14	1.9	-1	2.2
COc1ccc(C(=O)Nc2ccc(C(=O)Nc3cccc(C)c3)cc2)cc1	0.71	i	0.5	5	-2.8	0	2.0
CCOc1ccc(C2CC(c3cccc(C)c3)n3nc(N)nc3N2)cc1 (stereo unspecified)	0.79	i	0.2	nt	2.1	-3	-0.4
O=C(c1cc(-c2ccccc2Cl)nc2ccccc12)N1CCN(c2ccccc2O)CC1	0.69	i	-0.3	-2	-4.7	12	2.1
COCCNC(=O)c1c[nH]c2ccc(S(=O)(=O)N3CCOCC3)cc2c1=O	0.68	i	-15	-6	0.1	-1	-1.7
Cc1c(C=O)c2ccccn2c1C(=O)c1ccccc1Cl	0.7	i	4.1	21	-2.0	-17	1.5
Cn1c(CNc2ccc(F)cc2)nnc1SCC(=O)NNC(=O)Cc1ccccc1	0.72	i	0.5	1	-10	-2	5.1
CC(C)COP(=O)(OCC(C)C)C(O)c1ccccc1F (stereo unspecified)	0.72	nt	0.3	-6	1.2	3	1.5
CC(C)(C)c1cc(C(=O)NNS(=O)(=O)c2ccccc2)n[nH]1	0.67	i	3.9	31	3.2	-8	1.7
COc1cccc(/C=N/n2c(-c3cccs3)n[nH]c2=S)c1	nt	nt	nt	16	-2.7	12	0.9
COc1ccc2cc3cc(C(=O)NCC4CCCO4)oc3nc2c1 (stereo unspecified)	0.7	nt	-498	-11	3.7	-12	1.3
O=C(NNCC(O)COc1ccccc1)c1ccccc1 (stereo unspecified)	0.67	i	2.7	1	1.0	-7	0.4
Cc1ccc(-n2nnc3c(=O)n(Cc4cc(C)ccc4C)cnc32)cc1	0.71	nt	-1.1	3	-3.6	5	1.6
Cn1cc(C(=O)CCl)c2ccccc21	0.62	i	3.8	nt	nt	12	-1.3
CCOc1ccc(N2C(=O)CC(N(CCc3ccc(OC)c(OC)c3)C(=S)Nc3ccccc3)C2=O)cc1 (stereo unspecified)	0.72	i	-1.4	-10	3.9	20	-0.7
Cc1ccc(CNC2=NCCCCC2)n1C	0.7	nt	4.2	nt	4.3	-1	-2.6
COc1ccc(Nc2nc3ccccc3nc2C)cc1	0.68	nt	4.6	-25	-2.8	-3	11
Cc1ccccc1OCCC(=O)OCC(=O)NC1CCCCC1	0.71	i	-1.0	-3	-0.9	3	-1.8
N#Cc1c(NC(=O)c2ccc([N+](=O)[O-])o2)sc2c1CCC2	0.54	i	12	nt	-1.2	11	-7.3
COc1ccc(Nc2nnc(-c3ccncc3)s2)cc1Cl	0.65	+	3.5	2	0.0	-11	16
O=C(NC1=NCCS1)C1CCN(S(=O)(=O)c2cc([N+](=O)[O-])ccc2Cl)CC1	0.73	i	3.5	-17	2.5	-4	-18
Cc1c(NC(=O)CN(c2ccccc2)S(=O)(=O)c2ccc(F)cc2)c(=O)n(-c2ccccc2)n1C	0.68	i	0.8	-2	-6.0	2	1.0
COc1ccc([C@H]2CC(=O)C=C(c3ccc4ccccc4c3)C2)cc1OC	nt	i	2.8	2	-0.4	-3	2.8

Entries above that bear a hit mark in ALR H2O2 inh:
SMILES,UCH37 inh,ALR H2O2 inh,LANA-H2B inh,B2AR ag
Cc1ccc(C(=O)NCC(=O)OC(C)C(=O)Nc2ccc(N(C)C)cc2)cc1C (stereo unspecified),1.6,99*,-10,7
C=CCn1c(C(CCCC)CC(O)COCCC)n[nH]c1=S (stereo unspecified),0.2,92*,3.4,-1

Next part:
SMILES	Ecoli growth	FGF22 binding	UCH37 inh	ALR H2O2 inh	LANA-H2B inh	B2AR ag	HNF4A DNA FP
Cc1nnc(SCC(=O)Nc2ccccc2)[nH]c1=O	0.68	nt	0.9	-2	7.7	2	2.2
Cc1nc2ccccc2c2c1C(=O)N(C(C)C)C2=O	0.66	i	2.4	-6	-1.5	-11	1.2
C=CCOc1ccc(CN(C)CC(O)COc2ccc(CCC(C)=O)cc2)cc1 (stereo unspecified)	0.65	i	3.6	0	-2.8	3	-3.5
N=C1C(c2nc3ccccc3s2)=C(O)CN1CCCO	0.73	nt	-6.7	29	3.4	-2	2.3
O=C(OCc1nnc(-c2ccccc2)o1)c1cccc(S(=O)(=O)N2CCOCC2)c1	0.68	i	-1.1	-1	1.8	4	3.5
O=C(c1ccc(=O)[nH]n1)N1CCN(S(=O)(=O)c2ccc3ccccc3c2)CC1	0.67	i	5.2	-8	-0.6	-8	-0.3
CC(C)CN(CC(C)C)CC(O)CN(c1ccccc1)S(=O)(=O)c1ccccc1[N+](=O)[O-] (stereo unspecified)	0.7	i	-0.6	-1	-0.3	6	2.5
O=C(Nc1ccccc1F)C1CCN(S(=O)(=O)c2cccnc2)CC1	0.66	i	0.2	-4	1.0	11	1.2
S=c1[nH]nc(-c2cccs2)n1/N=C/c1cn(-c2ccccc2)nc1-c1ccc(Cl)cc1	nt	i	nt	1	-1.7	21	-5.7
O=c1c2oc3ccccc3c2ncn1Cc1ccccc1Cl	0.74	nt	0.5	-11	-0.3	0	1.9
CCC(C)N(C(=O)Cn1nnc(-c2ccc(Cl)cc2)n1)C1CCS(=O)(=O)C1 (stereo unspecified)	0.67	i	0.8	-9	-4.3	2	2.7
COc1cc(OC)c(C2Nc3ccccc3NC3=C2C(=O)CC(C)(C)C3)cc1OC (stereo unspecified)	0.7	i	9.6	87*	1.9	-5	0.3
CC(C)C(OC(=O)c1nsc(Cl)c1Cl)C(=O)NCc1ccc2c(c1)OCO2 (stereo unspecified)	0.66	nt	1.5	-3	1.3	9	5.2
O=C(Cn1nnc(-c2ccccc2)n1)N1CCN(S(=O)(=O)c2ccc(Cl)cc2)CC1	0.68	nt	3.4	-17	-1.4	-10	-2.7
CCCCCc1ccc(OCCC[n+]2ccccc2)c(CCCCC)c1	0.53	nt	30*	-20	-2.9	13	4.4
Cn1nccc1C(=O)N1CCCC(N2CCN(Cc3ccc4c(c3)OCO4)CC2)C1 (stereo unspecified)	0.69	i	2.9	-18	-18	2	3.6
COc1ccc(CN(C)C(=O)Cc2ccc(OC)c(S(=O)(=O)N3CCOCC3)c2)cc1OC	0.7	i	-2.0	-2	-4.8	-2	14
O=C(Nc1c(Cl)cc(Cl)cc1C(=O)NCC1CCCO1)c1ccco1 (stereo unspecified)	0.74	nt	-2.2	0	1.3	-9	-2.5
CC(C)(C)NC(=O)/C(=C/c1ccco1)c1ccccc1	nt	nt	6.3	90*	-2.5	-11	-4.6

At a glance, part of the list above.
SMILES	Ecoli growth	FGF22 binding	UCH37 inh	ALR H2O2 inh	LANA-H2B inh	B2AR ag	HNF4A DNA FP
Cc1nnc(SCC(=O)Nc2ccccc2)[nH]c1=O	0.68	nt	0.9	-2	7.7	2	2.2
Cc1nc2ccccc2c2c1C(=O)N(C(C)C)C2=O	0.66	i	2.4	-6	-1.5	-11	1.2

An excerpt; count on the stated rates, not on these rows.
